Mtb H37Rv: M. tuberculosis H37Rv growth inhibitors, H37Rv strain (AID 1626). inhibition, % at 10 µM, or IC50 in µM where a hit was titrated. 0.95% of 220,000 active. M. tuberculosis H37Rv growth inhibition; higher % means a stronger effect;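 active = confirmed in a dose series; inconclusive = inhibition above 80% but not taken into the dose series; inactive = below 80% or under 30% at every dose of the series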;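 also: bacteria incubated seven days before Alamar blue readout; 0% = bacteria only wells and 100% = bacteria with antibiotic wells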
YopH inh: YopH tyrosine phosphatase inhibitors, primary screen, biochemical, fluorescence Ex485/Em525. AID 898, 2007. 0.16% of 140,000 active. inhibition, %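 (about 10 µM by stock and volumes)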;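 active = inhibition of 50% or more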;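 also: controls were vehicle for no effect and minimum signal wells for full effect; inactives centre near -20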
RecA intein inh: Mtb RecA intein splicing inhibitors, primary screen, biochemical, fluorescence, HTS. Protein RecA (Mycobacterium tuberculosis (strain ATCC 25618 / H37Rv)), P9WHJ3. cell-free RecA intein splicing. inhibition, %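 (about 9 µM by stock and volumes)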. 0.75% of 290,000 active; in the data active = inhibition above about 30%; inconclusive = no clear call, values can overlap the other calls;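 also: 0% = vehicle wells and 100% = reference inhibitor control wells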
Target sequence (P9WHJ3 whole entry, looked up): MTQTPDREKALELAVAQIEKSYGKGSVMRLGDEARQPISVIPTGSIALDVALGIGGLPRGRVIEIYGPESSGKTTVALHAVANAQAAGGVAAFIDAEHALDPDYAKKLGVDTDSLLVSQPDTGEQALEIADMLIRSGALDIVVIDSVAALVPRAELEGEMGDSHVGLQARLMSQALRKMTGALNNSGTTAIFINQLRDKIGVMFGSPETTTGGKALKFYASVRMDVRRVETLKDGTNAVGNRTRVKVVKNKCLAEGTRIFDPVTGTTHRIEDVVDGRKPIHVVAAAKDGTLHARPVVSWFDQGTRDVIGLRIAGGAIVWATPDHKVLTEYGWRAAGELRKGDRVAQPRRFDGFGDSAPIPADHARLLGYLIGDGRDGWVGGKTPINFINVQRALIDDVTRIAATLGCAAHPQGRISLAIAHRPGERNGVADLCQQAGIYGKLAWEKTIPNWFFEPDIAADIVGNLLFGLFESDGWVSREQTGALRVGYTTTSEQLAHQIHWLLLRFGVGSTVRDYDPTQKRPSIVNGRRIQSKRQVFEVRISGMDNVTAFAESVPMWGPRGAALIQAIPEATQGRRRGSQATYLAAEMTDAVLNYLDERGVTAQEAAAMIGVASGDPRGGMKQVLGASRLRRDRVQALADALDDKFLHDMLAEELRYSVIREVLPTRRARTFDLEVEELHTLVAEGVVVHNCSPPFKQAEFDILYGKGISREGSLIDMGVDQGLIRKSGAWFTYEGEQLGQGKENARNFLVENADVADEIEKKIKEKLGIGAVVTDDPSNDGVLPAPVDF
Arbovirus inh: antivirals against arbovirus infection, primary screen, cell-based, full library, 10K replicate subset. 0.37% of 200,000 active. inhibition, % at 10 µM. arbovirus infection cell-based antiviral screen;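 active = inhibition from about 30%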;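 also: bluetongue infection of BSR cells; cell survival read as ATP light after 72 h; 0% = infected wells without compound and 100% = uninfected wells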
Mtb betalactam: beta-lactam sensitization of Mtb H37Rv, H37Rv | inhibition, % at 25 µM | M. tuberculosis H37Rv growth with meropenem, percent inhibition; hits of this screen are not shown here | 0.27% of 330,000 active;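 active = about 74% or more and at least 40 points above the plate without the antibiotic, then above 30% in a dose series; inconclusive = first-round hits that could not be retested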;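 also: growth measured after seven days incubation then overnight dye step; 0% = bacteria only wells and 100% = bacteria with antibiotic; twin plates without the antibiotic show which effects depend on it; some results filed as inactive read as strong as hits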
Arbovirus inh repeat: second read-out of Arbovirus inh, no call of its own (marks repeat the call); inhibition, %; measured here: 10K subset replicate screen; many hits read low in the repeat;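 first of two repeat runs on a subset; 0% = infected and 100% = uninfected wells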
Starred values were filed as active, the others as inactive; ? = inconclusive; nt = not tested or not shown.

SMILES	Mtb H37Rv	YopH inh	RecA intein inh	Arbovirus inh	Mtb betalactam	others
Cc1ccc(CCNC(=O)CCS(=O)(=O)c2ccc3c(c2)oc(=O)n3C)cc1	nt	nt	2.3	nt	-1
COc1ccc(NC(=S)NCCc2c[nH]c3ccc(OC)cc23)c(OC)c1	-3%	-21	2.9	2	0
Cc1ccc(-c2nc(N/N=C/c3ccncc3)c3ccccc3n2)cc1	4%	-35	-5.7	-24	10
CCN(CC(=O)Nc1ccc2c(c1)OCCO2)C(=O)C(C)Oc1ccc(Cl)cc1 (configuration not stated)	nt	nt	3.7	nt	-23
Nc1nc(SCC(=O)c2ccc([N+](=O)[O-])cc2)n[nH]1	2%	nt	1.9	-3	-10
C#Cc1ccc([C@@H]2C=C(C(=O)OCC=C)O[C@H](OCCCCO)C2)cc1	3%	nt	3.1	11	-2
Cc1ccc(OCCCc2c(C)n[nH]c2C)cc1	17µM*	nt	2.2	4	93
Cn1cc(Br)cc2nc(C(F)(F)F)nc1-2	-8%	-26	3.5	7	-5
CCOc1ccccc1N1CCN(C(=O)c2ccncc2)CC1	-6%	2	0.3	5	4
O=c1cc(-c2ccccc2)[nH]n1-c1nc2ccccc2s1	-7%	-34	-3.2	0	4
O=C(Nc1nccs1)c1ccccn1	6.1µM*	nt	1.9	12	96
Cn1c(SCC(=O)Nc2ccccc2F)nnc1-c1ccc(S(=O)(=O)N2CCOCC2)cc1	0%	19	-0.8	-1	13
COc1ccc(-n2c(=O)c3ccccc3n(CC(=O)NC3CCCCC3)c2=O)cc1OC	0%	nt	3.5	-5	-10
COc1ccccc1CNC(=O)C1CCC(=O)N(CCCc2ccccc2)C1 (configuration not stated)	nt	nt	2.3	nt	-2
CCOC(=O)c1cnn(C(=O)c2ccccc2)c1N	>100µM*	-8	1.5	3	nt
Cc1cc(C)cc(NC(=S)N(CCCN2CCN(C)CC2)Cc2cccs2)c1	3%	nt	-1.9	2	4
CC(=O)c1cc(C#N)c(SCc2ccccn2)nc1C	-3%	nt	-2.9	nt	-2
Cc1ccsc1C(=O)N1CCCC(CO)(Cc2ccccc2F)C1 (configuration not stated)	nt	nt	-2.2	nt	-4
CCOC(=O)CNC(=O)C(Cc1ccccc1)NC(=O)OCc1ccccc1 (configuration not stated)	78%	nt	4.4	10	95
COc1ccc(C(C(=O)OCCN(C)C)c2ccccc2)cc1 (configuration not stated)	0%	-6	-0.2	12	16
COc1ccc(NC(=O)C2CC3CCC2C3)c(OC)c1 (configuration not stated)	nt	nt	1.2	nt	6
Cc1nnc(NC(=O)CCNC(=O)c2ccccc2Cl)s1	3%	nt	-5.7	18	-4
Cc1cccnc1N(C(=O)Nc1ccccc1)C1=NCC(C)(C)S1	1%	-24	0.7	-4	55
COc1cc(C(=O)NCC2(N3CCCCC3)CCCCC2)ccc1OCC(=O)N1CCOCC1	-8%	nt	0.6	nt	-2
O=C(Oc1ccc(OC(=O)N2CCOCC2)cc1)c1ccccc1	10%	-46	-0.2	5	-15

Reprinted at random: two entries already listed
SMILES	Mtb H37Rv	YopH inh	RecA intein inh	Arbovirus inh	Mtb betalactam	others
COc1cc(C(=O)NCC2(N3CCCCC3)CCCCC2)ccc1OCC(=O)N1CCOCC1	-8%	nt	0.6	nt	-2
O=c1cc(-c2ccccc2)[nH]n1-c1nc2ccccc2s1	-7%	-34	-3.2	0	4

New compounds follow:
SMILES	Mtb H37Rv	YopH inh	RecA intein inh	Arbovirus inh	Mtb betalactam	others
COc1cc2ccccc2cc1C(=O)Nc1nccs1	nt	nt	3.3	nt	61
CC1=C(C(=O)OCc2ccccc2)C(c2ccoc2)C(C#N)=C(N)O1 (configuration not stated)	-7%	5	4.2	4	-5
CCC1(CC)Cc2ccccc2-c2nc3ccccc3c(=O)n21	-15%	2	3.9	5	4
O=C(NC(=S)N1CCN(C(c2ccccc2)c2ccccc2)CC1)c1ccc(S(=O)(=O)N2CCOCC2)cc1	9%	-21	6.2	6	2
Cc1cc(C)nc(SCc2nnc(SCC(=O)N3CCOCC3)o2)n1	-2%	-18	0.9	1	-5
CCOC(=O)NCc1ccc(S(=O)(=O)Nc2c(C)cccc2C)cc1	0%	-18	-8.5	-7	-11
CCOC(=O)c1c(NC(=O)COC(=O)CCS(=O)(=O)c2ccc(C)cc2)sc(C)c1C	-1%	-39	4.5	2	5
COc1cc(-c2[nH]ncc2CN(C)Cc2nonc2C)cc(OC)c1OC	2%	nt	-3.2	3	-5
Cc1ccc(C(=O)Oc2ccc3ccc(=O)oc3c2)cc1	nt	nt	-4.0	nt	38
O=C(CCc1[nH]c2ccccc2c1Sc1ccccc1)N(CCO)CCO	1%	-32	7.3	8	-10
COc1ccc(NC(=O)Cc2c(Sc3ccccc3)c3ccccc3n2C)cc1	4%	4	-5.8	-2	-6
CC(NS(=O)(=O)c1ccc(Cl)cc1)C(=O)N1CCOCC1 (configuration not stated)	nt	nt	2.5	nt	-11
COc1cc(/C=N/n2c(COc3ccccc3)n[nH]c2=S)cc(Br)c1O	nt	nt	0.1	nt	?
CC(C)CCNC(=O)c1cc([N+](=O)[O-])ccc1N1CCOCC1	-7%	-7	1.7	3	-11
CN1CCN(C(=O)C2CCCN(S(=O)(=O)c3ccccc3)C2)CC1 (configuration not stated)	nt	nt	-3.3	nt	-7
COc1ccccc1NC(=O)N(Cc1ccco1)Cc1cc2ccc(C)c(C)c2[nH]c1=O	4%	-10	6.7	-21	-8
CN(C(=O)COC(=O)CCc1c[nH]c2ccccc12)c1ccccc1	nt	nt	-0.5	nt	-9
Cc1cccc(N(CC(=O)N/N=C/c2ccccc2C(=O)O)S(C)(=O)=O)c1C	2%	nt	-3.0	nt	-1
Cc1cc(C(=O)OCC(=O)NCCC(C)C)c2ccccc2n1	-4%	-28	1.9	1	-12
Cc1ccc2c3c1C(=O)C(=O)N3C(C)(C)CC2C (configuration not stated)	4%	-27	-1.4	6	6
CCc1noc(C)c1C(=O)OCC(=O)N(C)c1c(N)n(Cc2ccccc2)c(=O)[nH]c1=O	nt	nt	-2.1	nt	0
O=C(Cc1c(F)cccc1Cl)N(Cc1ccccc1)c1ccccn1	7%	nt	1.3	-7	1
NNc1nc2sc3c(c2c(=O)[nH]1)CCc1ccccc1-3	12%	-21	-1.1	-1	14
CSc1nnc(C)c(=O)n1COC(=O)COc1ccccc1F	2%	nt	0.9	3	-3
COc1ccc(CCNC(=O)C(C)SCc2ccccc2)cc1 (configuration not stated)	-2%	nt	1.2	-3	4

Ordered by SMILES length (smallest number first): part of the list above.
SMILES	Mtb H37Rv	YopH inh	RecA intein inh	Arbovirus inh	Mtb betalactam	others
Cc1ccc(OCCCc2c(C)n[nH]c2C)cc1	17µM*	nt	2.2	4	93
CC(NS(=O)(=O)c1ccc(Cl)cc1)C(=O)N1CCOCC1 (configuration not stated)	nt	nt	2.5	nt	-11
Cc1cc(C)nc(SCc2nnc(SCC(=O)N3CCOCC3)o2)n1	-2%	-18	0.9	1	-5
Nc1nc(SCC(=O)c2ccc([N+](=O)[O-])cc2)n[nH]1	2%	nt	1.9	-3	-10
COc1cc(-c2[nH]ncc2CN(C)Cc2nonc2C)cc(OC)c1OC	2%	nt	-3.2	3	-5
COc1ccc(NC(=O)Cc2c(Sc3ccccc3)c3ccccc3n2C)cc1	4%	4	-5.8	-2	-6
Cn1c(SCC(=O)Nc2ccccc2F)nnc1-c1ccc(S(=O)(=O)N2CCOCC2)cc1	0%	19	-0.8	-1	13

Molecules listed so far with a nitro group on carbon:
SMILES	Mtb H37Rv	YopH inh	RecA intein inh	Arbovirus inh	Mtb betalactam	others
Nc1nc(SCC(=O)c2ccc([N+](=O)[O-])cc2)n[nH]1	2%	nt	1.9	-3	-10
CC(C)CCNC(=O)c1cc([N+](=O)[O-])ccc1N1CCOCC1	-7%	-7	1.7	3	-11

In the list so far, 5 have two or more sulfur atoms.
SMILES	Mtb H37Rv	YopH inh	RecA intein inh	Arbovirus inh	Mtb betalactam	others
Cn1c(SCC(=O)Nc2ccccc2F)nnc1-c1ccc(S(=O)(=O)N2CCOCC2)cc1	0%	19	-0.8	-1	13
Cc1cc(C)cc(NC(=S)N(CCCN2CCN(C)CC2)Cc2cccs2)c1	3%	nt	-1.9	2	4
O=C(NC(=S)N1CCN(C(c2ccccc2)c2ccccc2)CC1)c1ccc(S(=O)(=O)N2CCOCC2)cc1	9%	-21	6.2	6	2
Cc1cc(C)nc(SCc2nnc(SCC(=O)N3CCOCC3)o2)n1	-2%	-18	0.9	1	-5
CCOC(=O)c1c(NC(=O)COC(=O)CCS(=O)(=O)c2ccc(C)cc2)sc(C)c1C	-1%	-39	4.5	2	5

(next part)
SMILES	Mtb H37Rv	YopH inh	RecA intein inh	Arbovirus inh	Mtb betalactam	others
COc1cc(C#CC#CCN2CCCCC2)ccc1O	5%	-30	2.8	-7	0
CCOC(=O)C1CCCN(Cc2ccccc2OCC)C1 (configuration not stated)	-6%	-14	-5.5	4	?
Cn1c(CC(=O)Nc2ccccc2)nnc1SCCOc1ccccc1	-3%	-39	-0.3	2	-5
CCS(=O)(=O)N1CCC(C(=O)NCCCN2CCCCCC2)CC1	-20%	0	2.2	2	10
N=C1C(c2nc3ccccc3s2)=C(O)CN1C1CCCCC1	2%	nt	-2.6	0	8
COc1ccc(-n2nc3cc(N)c(Br)cc3n2)cc1	nt	nt	3.2	nt	2
CSc1cccc(NC(=S)NCCCO)c1	-7%	nt	0.5	nt	2
CN1OC(CC(=O)O)N(c2ccc(Cl)cc2)C1=O (configuration not stated)	12%	-30	0.9	1	-8
O=C(c1ccc(Cl)cc1)N1CCN(CCc2ccccn2)CC1	nt	nt	-0.3	nt	4
Cc1c(NC(=O)c2cc(C3CC3)on2)c(=O)n(-c2ccccc2)n1C	1%	-39	0.6	1	9
CCOC(=O)C1CCN(C(=O)c2cc(C(C)(C)C)nn2Cc2ccccc2)CC1	-10%	nt	-0.5	nt	-6
O=c1[nH]c(O)c(/C=C2\C=Nc3ccccc32)[nH]1	8%	nt	0.2	nt	6
CC(C)(C)C1CCc2c(sc(NC(=O)c3cc(C4CC4)on3)c2C#N)C1 (configuration not stated)	5%	-47	-0.8	11	-2	Arbovirus inh repeat=12
O=c1[nH]c(=O)n(Cc2ccccc2)c2nc(-c3cccs3)n(CCO)c12	-1%	nt	-8.3	nt	-10
CN(C)c1ccc(-c2ccccc2)nn1	-2%	-10	0.4	-4	-11
CC(C)n1cc(CN2CCC(C(=O)Nc3cccc(-c4cccc(Cl)c4)c3)CC2)cn1	nt	nt	2.3	nt	90
CC(C)(C(=O)c1ccccc1)/[N+]([O-])=C/c1ccc(F)cc1	-3%	-27	-4.9	nt	-6
Cc1ccc(S(=O)(=O)N(C)c2ccccc2C(=O)N2CCOCC2)cc1	nt	nt	2.0	nt	-14
Cc1ccc2cccc(NC(=S)NC(=O)c3ccn(C)n3)c2n1	?	-5	5.8	-4	96
COc1ccccc1NC(=O)C(C)Sc1nnnn1C (configuration not stated)	-8%	nt	1.9	2	-6
CCN(CC)CCCN=Cc1c(O)n(-c2cccc(C)c2C)c(=O)[nH]c1=O	4%	-22	0.3	2	7
CC(Oc1ccc(Br)cc1)C(=O)NNC(=O)CCN1CCN(c2ccccc2)CC1 (configuration not stated)	nt	nt	0.5	nt	-9
CCNC(=S)NNc1nnc(-c2ccccc2)c(-c2ccccc2)n1	nt	nt	-3.4	nt	8
Cn1c(=O)c2c(SCc3ccccn3)nc(C3CC3)nc2n(C)c1=O	-2%	-4	2.5	-12	-13
O=C(/C=C/NNC(=O)c1ccccc1)c1ccc(Br)cc1	-2%	8	6.0	20	27
CCCCN1C(N)=NC[C@@H]1CCCCN	6%	nt	-3.5	nt	-5
CCOc1ccccc1NC(=O)c1cccc(NC(=O)C2CCCC2)c1	nt	nt	0.7	nt	1
Cc1nc(/C(N)=N/OC(=O)c2ccccc2Cl)c(C(F)(F)F)o1	2%	nt	-2.7	nt	-2
COc1ccc2cc3cc(C(=O)NCc4cccs4)oc3nc2c1	-12%	5	1.8	-27	31

Only part of the results is shown; count on the stated rates, not on these rows.
